# FGF22 binding: binders of human FGF22 protein, primary screen, FGF22 synaptogenesis inhibitor project, biophysical, thermal shift, single point; recombinant FGF22 thermal shift, SYPRO orange fluorescence; percent of sucrose octasulfate shift, DMSO zero; calls only at 9.99 µM; 1.5% of 340,000 active; AID 651658, 2012;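 active means melting point raised past a set limit in the mean and every replicate; inconclusive means no clear call; three in four hits are not shown here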
# Target sequence (Q9HCT0 whole entry, looked up): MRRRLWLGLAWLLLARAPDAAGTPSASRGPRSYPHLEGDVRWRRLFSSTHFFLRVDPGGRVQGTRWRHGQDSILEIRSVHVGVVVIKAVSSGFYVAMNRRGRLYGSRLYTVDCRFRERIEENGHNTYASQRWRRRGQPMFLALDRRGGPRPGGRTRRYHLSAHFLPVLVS
# Ecoli rRNA inh: reduced GFP signal of wild-type E. coli, primary screen, bacterial rRNA inhibitor project, GFP/RFP fluorescence, OD600, single point | E. coli WT GFP vs humanized-ribosome RFP mutants, 24 h; active compounds read low; DMSO median 0, no signal -100 | GFP signal change (wild-type ribosome), % (test concentration not listed) | 1.6% of 350,000 active;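 active means significant combined selectivity score with lowered wild-type GFP, culture density cut under 30%, mutant RFP and density less affected; inactive means any of these conditions unmet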; further: one replicate is shown; some compounds called inactive have numbers as strong as hits
# AF4-AF9 inh: inhibitors of AF4 peptide binding to AF9, primary screen, biochemical, AlphaScreen, biotin-AF4 peptide, FLAG-AF9, single point | Protein AF-9 (Homo sapiens), P42568 | inhibition, % at 10 µM | 0.47% of 350,000 active;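 active means every replicate reaching a set inhibition limit, whatever the replicate mean, cut at about 25% in these data; inconclusive means mean inhibition reaches that limit but some replicates miss it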;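 further: 0% = plate neutral control median and 100% = total signal loss; the record names both 10 and 1 µM as test concentration; the first replicate is given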
# Target sequence (P42568 whole entry, looked up): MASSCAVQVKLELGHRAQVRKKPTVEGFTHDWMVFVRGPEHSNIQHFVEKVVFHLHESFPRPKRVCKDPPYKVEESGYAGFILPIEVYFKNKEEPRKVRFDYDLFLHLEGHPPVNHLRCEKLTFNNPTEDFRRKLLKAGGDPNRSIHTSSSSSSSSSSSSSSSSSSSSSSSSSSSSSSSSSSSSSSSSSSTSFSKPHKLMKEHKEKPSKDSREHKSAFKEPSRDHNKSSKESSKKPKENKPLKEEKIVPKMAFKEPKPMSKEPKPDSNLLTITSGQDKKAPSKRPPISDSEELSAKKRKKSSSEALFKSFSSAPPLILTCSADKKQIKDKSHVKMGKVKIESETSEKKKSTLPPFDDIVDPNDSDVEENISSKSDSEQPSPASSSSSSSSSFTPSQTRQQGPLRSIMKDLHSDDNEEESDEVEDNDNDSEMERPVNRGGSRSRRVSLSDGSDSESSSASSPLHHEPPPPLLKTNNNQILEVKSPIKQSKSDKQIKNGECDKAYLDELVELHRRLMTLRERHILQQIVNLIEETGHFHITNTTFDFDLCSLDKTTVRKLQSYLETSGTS
# Ecoli rRNA inh OD600: second read-out of Ecoli rRNA inh, no call of its own (marks repeat the call); OD600 change, %; measured here: OD600 growth;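 optical density of the mix in the first replicate; 0 = DMSO median and -100 = no signal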
# Ecoli rRNA inh RFP: also measured in Ecoli rRNA inh; calls as there; RFP signal change, %; measured here: RFP humanized mutant strains;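 first replicate; 0 = DMSO median and -100 = no signal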
# Numbers without * were called inactive; i = inactive; ? = inconclusive; + = active, no number; & = joins results of further samples. Some of the compounds tested; rates above refer to the full screens.
cpd	structure	FGF22 binding	Ecoli rRNA inh	Ecoli rRNA inh OD600
1	C[C@H](CO)N1C[C@H](C)[C@H](CN(C)Cc2ccc(C(F)(F)F)cc2)Oc2ccc(NC(=O)CCN3CCOCC3)cc2C1=O	i	-3	5
2	COc1ccc(NC(=O)Nc2ccc3c(c2)CC(=O)N([C@@H](C)CO)C[C@@H](C)[C@@H](CN(C)S(=O)(=O)c2ccc(C)cc2)O3)cc1	i	-2	-5
3	OC(c1cccnc1)c1nc(-c2ccc3c(c2)OCO3)cs1 (stereo not given)	i	-4	-9
4	CCCS(=O)(=O)NC(=O)C1(C)CCCN(C(=O)c2ccncc2)C1 (stereo not given)	i	5	13
5	C[C@H](CO)N1C[C@H](C)[C@H](CN(C)C(=O)c2ccccc2F)Oc2cc(C#CCN(C)C)ccc2S1(=O)=O	i	2	2
6	C[C@H]1CN([C@@H](C)CO)C(=O)c2cccc(NC(=O)Nc3ccc(C(F)(F)F)cc3)c2O[C@@H]1CN(C)CC1CC1	i	-12	-51
7	O=C1c2ccccc2C(=O)N1C1(C(=O)NC2(C(=O)O)CCCC2)CCCC1	i	3	1
8	N#C[C@H]1[C@@H](c2ccccc2)[C@@H](CO)N1C(=O)c1ccc2c(c1)OCO2	i	4	6
9	COC(=O)c1cc2c(c3c4cc(OC)ccc4n(C(=O)c4ccccc4)c13)C(=O)N(C1CCCCC1)C2	i	-8	-11
10	C/C=C/c1ccc([C@H]2[C@@H](C#N)N(c3ncc(CC)s3)[C@@H]2CO)cc1	i	5	18
11	CO[C@H]1CN(C)C(=O)c2cc(NC(=O)C3CC3)ccc2OC[C@H](C)N(C(=O)c2ccccc2)C[C@@H]1C	i	1	1
12	Cc1c[n+](C)ccc1CC1C([N+](=O)[O-])=C[N-]c2ncnn21 (stereo not given)	i	14	6
13	COc1ccc(CN(C)C[C@@H]2Oc3ccc(NC(=O)Nc4ccc(F)cc4)cc3C(=O)N([C@@H](C)CO)C[C@@H]2C)cc1	i	-4	-15
14	COc1ccc(NC(=O)CSc2n[nH]c(=O)n2C2CC2)cc1Cl	i	0	9
15	CO[C@@H]1CN(C)C(=O)c2ccc(NS(C)(=O)=O)cc2OC[C@H](C)N(Cc2nccs2)C[C@H]1C	i	0	-2

cpd	Ecoli rRNA inh RFP	AF4-AF9 inh
1	-3.9	0.2
2	3.8	-3.6
3	1.7	-2.0
4	-0.4	-0.2
5	-1.7	4.1
6	17	0.3
7	-0.3	0.9
8	-0.8	0.5
9	1.8	3.6
10	-1.1	-2.0
11	0.0	-1.3
12	-0.9	-2.1
13	0.0	3.2
14	-0.4	-18
15	-3.1	-0.8

# Ordered by value in Ecoli rRNA inh OD600 (high to low): some entries from above
cpd	structure	FGF22 binding	Ecoli rRNA inh	Ecoli rRNA inh OD600
10	C/C=C/c1ccc([C@H]2[C@@H](C#N)N(c3ncc(CC)s3)[C@@H]2CO)cc1	i	5	18
1	C[C@H](CO)N1C[C@H](C)[C@H](CN(C)Cc2ccc(C(F)(F)F)cc2)Oc2ccc(NC(=O)CCN3CCOCC3)cc2C1=O	i	-3	5
9	COC(=O)c1cc2c(c3c4cc(OC)ccc4n(C(=O)c4ccccc4)c13)C(=O)N(C1CCCCC1)C2	i	-8	-11

cpd	Ecoli rRNA inh RFP	AF4-AF9 inh
10	-1.1	-2.0
1	-3.9	0.2
9	1.8	3.6

# Additional compounds
cpd	structure	FGF22 binding	Ecoli rRNA inh	Ecoli rRNA inh OD600
16	C[C@@H]1CN([C@H](C)CO)S(=O)(=O)c2ccc(C#Cc3ccccn3)cc2O[C@H]1CN(C)Cc1ccc(F)cc1	i	-1	-3
17	Cc1ccc(-c2nc3ccc(Cl)cn3c2Cc2ccccc2C(F)(F)F)cc1	i	-7	-16
18	CC(=O)N[C@H]1CC[C@H](CC(=O)NCC2CCCCC2)O[C@H]1CO	i	0	0
19	C[C@H](CO)N1C[C@H](C)[C@@H](CN(C)CC2CCCCC2)OCCCC[C@H](C)Oc2ccc(NC(=O)Nc3cccc4ccccc34)cc2C1=O	+	-7	-5
20	C[C@@H]1CCCCO[C@@H](CN(C)C(=O)Nc2ccc(F)cc2)[C@H](C)CN([C@H](C)CO)C(=O)c2cc(NC(=O)C3CCCCC3)ccc2O1	i	2	5
21	C[C@H](NC(=O)C[C@H]1CC[C@@H](NC(=O)C2CCC2)[C@@H](CO)O1)c1ccccc1	i	2	6
22	CNC[C@@H]1Oc2cc(C#Cc3ccccn3)ccc2S(=O)(=O)N([C@H](C)CO)C[C@H]1C	i	-2	-3
23	Cc1noc(C)c1NC(=O)N(C)C[C@H]1Oc2ccc(NS(=O)(=O)c3ccccc3)cc2C(=O)N([C@H](C)CO)C[C@H]1C	i	4	2
24	CCC(=O)N[C@H]1CC[C@@H](CCNS(=O)(=O)c2ccc(Cl)cc2)O[C@H]1CO	i	2	2
25	O=C(C[C@H]1CC[C@H](NC(=O)c2ccccc2)[C@H](CO)O1)NCc1ccncn1	i	4	-4
26	C[C@@H]1CCCCO[C@@H](CN(C)C(=O)Nc2ccc3c(c2)OCO3)[C@H](C)CN([C@@H](C)CO)C(=O)c2cc(NC(=O)c3ccncc3)ccc2O1	i	-1	-4
27	CCCCC[C@@H](C)N1C[C@H](COCc2ccccc2)Oc2cc(N3CCC[C@H]3CO)ccc2S1(=O)=O	i	5	5
28	CCCN1C[C@@H](C)[C@@H](OC)CN(C)C(=O)c2ccc(NC(=O)c3cccc(F)c3)cc2OC[C@H]1C	i	3&-1&9	5&0&15
29	COc1ccc(OCCN2CCC(C(=O)NC(c3ccccn3)c3ccccc3OC)CC2)cc1 (stereo not given)	i	11	6
30	COCC(=O)N[C@@H]1C=C[C@H](CC(=O)NCc2ccc(Cl)cc2)O[C@@H]1CO	i	0	-1

cpd	Ecoli rRNA inh RFP	AF4-AF9 inh
16	7.0	0.7
17	2.0	-1.7
18	0.3	-1.9
19	-4.7	4.0
20	0.2	-2.2
21	-2.8	1.2
22	4.1	0.3
23	-1.0	-2.7
24	0.6	-2.0
25	-0.4	0.1
26	0.4	-3.5
27	-1.3	-3.7
28	-0.6&-0.5&1.0	?
29	6.7	2.7
30	-2.1	-2.0

# Going on with the list.
cpd	structure	FGF22 binding	Ecoli rRNA inh	Ecoli rRNA inh OD600
31	CCC(=O)N1[C@@H]2c3ccc(C4=CCCCC4)c(=O)n3C[C@@H]2[C@@H](CO)[C@@H]1C(=O)NC1CCC1	i	1	5
32	C=C[C@H]1C(C(=O)OCC)=CC[C@@H](c2ccccc2)N1S(=O)(=O)c1ccc(C)cc1	i	-8	-10
33	CO[C@@H]1CN(C)C(=O)c2cc(NS(=O)(=O)c3cccc(C)c3)ccc2OC[C@H](C)NC[C@@H]1C	i	1	-5
34	COc1ccccc1CNC(=O)C[C@H]1CC[C@H]2[C@@H](COC[C@H](O)CN2Cc2ccc3c(c2)OCO3)O1	i	-4	-3
35	Cc1ccc(-c2ccc3c(c2)O[C@H](CN(C)Cc2ccccn2)[C@@H](C)CN([C@@H](C)CO)S3(=O)=O)cc1	i	-26	-40
36	CCCC(=O)Nc1ccc2c(c1)OC[C@H](C)N(S(=O)(=O)c1cn(C)cn1)C[C@@H](C)[C@@H](OC)CN(C)C2=O	i	4	-3
37	C[C@H]1CN([C@@H](C)CO)C(=O)Cc2cc(NS(=O)(=O)c3cccs3)ccc2O[C@@H]1CN(C)Cc1ccc(Oc2ccccc2)cc1	i	1	0
38	C[C@H](CO)N1C[C@H](C)[C@@H](CN(C)Cc2ccc(C(=O)Nc3ccccc3N)cc2)Oc2c(NC(=O)c3ccc(-c4nccs4)cc3)cccc2C1=O	i	-4	-3
39	CCC(C)Sc1cc(-c2nc3ccc(Cl)cn3c2NC2CCCCC2)ccc1OC (stereo not given)	i	-12	-26
40	CNC[C@H]1OCCCC[C@@H](C)Oc2ccc(NS(=O)(=O)c3ccc(OC)cc3)cc2C(=O)N([C@H](C)CO)C[C@@H]1C	i	2	4
41	COC(=O)C[C@H]1C[C@@H]2c3cc(N(C)C)ccc3O[C@@H]2[C@H](CO)O1	i	7&0	8&5
42	C[C@@H]1CN([C@H](C)CO)S(=O)(=O)c2ccc(C#Cc3ccncc3)cc2O[C@@H]1CN(C)S(=O)(=O)c1ccccc1	i	-1	0
43	CCCc1cc(=O)[nH]c(SCC(=O)Nc2sccc2C#N)n1	i	-13	-18
44	O=C(CN1CCOCC1)N1CC2(C1)[C@H](c1ccccc1)[C@@H](CO)N2Cc1ccccc1	i	4	5
45	O=C(CNC(=O)c1ccccc1)OCN1C(=O)c2ccccc2C1=O	i	0	-2

cpd	Ecoli rRNA inh RFP	AF4-AF9 inh
31	-4.7	-2.9
32	2.4	-5.7
33	-1.6	-6.1
34	1.0	4.1
35	23	6.8
36	-0.8	-1.4
37	-1.7	1.1
38	0.3	1.0
39	4.6	9.4&3.0
40	-2.0	-9.2
41	1.4&-0.1	0.0&-4.4
42	5.2	4.6
43	0.9	-2.6
44	0.6	-0.4
45	-2.2	-6.7

# (more compounds)
cpd	structure	FGF22 binding	Ecoli rRNA inh	Ecoli rRNA inh OD600
46	O=C(C[C@@H]1CC[C@@H]2[C@H](COC[C@@H](O)CN2C(=O)c2ccccc2)O1)N1CCOCC1	i	2	-4
47	O=C(OCC(O)C(O)C(O)COC(=O)c1ccccc1)c1ccccc1 (stereo not given)	i	-10	-11
48	CO[C@@H]1CN(C)C(=O)c2cc(NC(=O)NC3CCCCC3)ccc2OC[C@@H](C)N(CCc2ccccc2)C[C@@H]1C	i	-3&-4	-6&-13
49	CCCCNC(=O)C1(C)CCN1C(=O)c1cc(F)ccc1C (stereo not given)	i	3	2
50	COc1ccc(S(=O)(=O)N(C)C[C@@H]2Oc3ccc(NC(=O)Cn4cnnn4)cc3CC(=O)N([C@H](C)CO)C[C@H]2C)cc1	i	4	3
51	Cc1ccc([C@H]2C[C@@H](n3cc(COC(=O)c4ccccc4)nn3)[C@H](O)CN2C(=O)C2CCCCC2)cc1	i	-5	-3
52	CN1CCN(C(=O)[C@H]2[C@H](CO)[C@H]3Cn4c(ccc(-c5cncnc5)c4=O)[C@H]3N2CC2CCCC2)CC1	i	1	3
53	C[C@@H]1CCCCO[C@@H](CN(C)S(=O)(=O)c2ccccc2)[C@@H](C)CN([C@@H](C)CO)C(=O)c2cc(NC(=O)Nc3ccc(F)cc3)ccc2O1	i	2	6
54	C[C@@H]1CN([C@H](C)CO)C(=O)Cc2cc(NC(=O)Nc3ccccc3)ccc2O[C@H]1CN(C)Cc1ccc(C(=O)O)cc1	i	4	7
55	C[C@@H]1CCCCO[C@@H](CN(C)S(C)(=O)=O)[C@@H](C)CN([C@@H](C)CO)C(=O)c2cc(NS(=O)(=O)c3ccc(Cl)cc3)ccc2O1	i	2	0
56	COc1cc(O)c(C(=O)CC(=O)c2ccncc2)c(OC)c1	i	-7	-20
57	C[C@@H]1CCCCO[C@@H](CN(C)C(=O)c2ccccc2)[C@@H](C)CN([C@@H](C)CO)C(=O)c2cc(NC(=O)NC3CCCCC3)ccc2O1	i	1	-5
58	C[C@H]1CN([C@@H](C)CO)C(=O)Cc2cc(NC(=O)Nc3ccccc3)ccc2O[C@H]1CN(C)S(=O)(=O)c1cn(C)cn1	i	1	2
59	C[C@@H]1CN([C@@H](C)CO)C(=O)CCCn2nncc2CO[C@H]1CN(C)S(=O)(=O)c1cccc(C#N)c1	i	13&-1	10&0
60	CC(=O)N(C)C[C@@H]1Oc2cc(C#Cc3ccccc3)ccc2S(=O)(=O)N([C@H](C)CO)C[C@H]1C	i	-1	-16
61	O=C(NCCN1CCCC1)[C@H]1N[C@H]2c3ccc(C4=CCCCC4)c(=O)n3C[C@H]2[C@@H]1CO	i	1	2
62	C[C@H](CO)N1C[C@H](C)[C@@H](CN(C)Cc2ccc(C(=O)O)cc2)OCCCC[C@H](C)Oc2ccc(NC(=O)Cc3ccccc3)cc2C1=O	i	6	7

cpd	Ecoli rRNA inh RFP	AF4-AF9 inh
46	9.2	-0.8
47	1.5	-2.8
48	15&18	4.8
49	-1.1	-0.8
50	-2.0	-0.9
51	0.4	-2.4
52	1.1	-1.0
53	-0.9	1.7
54	0.3	-2.3
55	-1.0	3.2
56	-3.0	0.0
57	0.0	1.1
58	-1.5	-1.2
59	0.0&4.2	0.5&-2.5
60	3.4	2.3
61	0.2	10
62	-0.3	8.1

# Some of the entries so far, as labelled records:
47) O=C(OCC(O)C(O)C(O)COC(=O)c1ccccc1)c1ccccc1 (stereo not given)
  FGF22 binding: i | Ecoli rRNA inh: -10 | Ecoli rRNA inh OD600: -11 | Ecoli rRNA inh RFP: 1.5 | AF4-AF9 inh: -2.8
59) C[C@@H]1CN([C@@H](C)CO)C(=O)CCCn2nncc2CO[C@H]1CN(C)S(=O)(=O)c1cccc(C#N)c1
  FGF22 binding: i | Ecoli rRNA inh: 13&-1 | Ecoli rRNA inh OD600: 10&0 | Ecoli rRNA inh RFP: 0.0&4.2 | AF4-AF9 inh: 0.5&-2.5

# Source: PubChem (Broad Institute)
